MbtI inh = inhibitors of Mycobacterium tuberculosis siderophore enzyme MbtI; purified MbtI enzyme, fluorescence intensity read-out; inhibition, %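 (about 17 µg/mL by stock and volumes)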; hit rate 0.89% among 100,000;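 active means above 50% in both replicates, above 80% if mildly self-fluorescent; inactive means the rest, strongly fluorescent compounds included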;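 further: 0% = mean of negative and 100% = mean of positive controls; one replicate is shown; some compounds called inactive have numbers as strong as hits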
Target sequence (P9WFX0 whole entry, looked up): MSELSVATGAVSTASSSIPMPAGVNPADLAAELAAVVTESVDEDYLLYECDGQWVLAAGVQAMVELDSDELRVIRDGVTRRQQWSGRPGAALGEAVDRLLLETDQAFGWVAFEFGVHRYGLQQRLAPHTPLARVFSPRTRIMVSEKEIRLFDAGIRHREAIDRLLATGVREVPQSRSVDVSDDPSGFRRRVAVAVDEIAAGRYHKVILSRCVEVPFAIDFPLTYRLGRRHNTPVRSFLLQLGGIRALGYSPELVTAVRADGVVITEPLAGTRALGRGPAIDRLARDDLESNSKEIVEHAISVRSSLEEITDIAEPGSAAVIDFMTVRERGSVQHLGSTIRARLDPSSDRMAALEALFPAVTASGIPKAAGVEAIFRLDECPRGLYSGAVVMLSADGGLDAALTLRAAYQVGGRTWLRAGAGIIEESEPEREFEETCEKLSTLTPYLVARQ
Polio RdRp inh = inhibitors of poliovirus RNA polymerase binding and polymerization; poliovirus polymerase elongation, fluorescence polarization; hits give low values; P03300; AID 588519; hit rate 0.66% among 150,000; % elongation, % (compound at 16.7 µg/mL); in the data active means % elongation below about 90%; further: some results filed as inactive read as strong as hits
Target sequence (P03300 1749-2209 limits assumed): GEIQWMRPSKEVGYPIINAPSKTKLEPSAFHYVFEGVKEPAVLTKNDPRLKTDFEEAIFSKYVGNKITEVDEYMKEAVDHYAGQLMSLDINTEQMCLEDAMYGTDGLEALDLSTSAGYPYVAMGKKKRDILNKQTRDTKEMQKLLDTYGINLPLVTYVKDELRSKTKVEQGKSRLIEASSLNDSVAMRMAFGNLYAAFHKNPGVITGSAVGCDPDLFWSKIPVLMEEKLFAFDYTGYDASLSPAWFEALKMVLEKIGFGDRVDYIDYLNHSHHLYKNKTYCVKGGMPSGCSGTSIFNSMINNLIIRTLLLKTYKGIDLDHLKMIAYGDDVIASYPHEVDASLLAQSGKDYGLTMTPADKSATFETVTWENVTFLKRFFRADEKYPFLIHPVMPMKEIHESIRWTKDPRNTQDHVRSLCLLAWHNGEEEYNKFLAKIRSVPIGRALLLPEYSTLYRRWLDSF
Mtb MenB inh = Mtb MenB enzyme inhibition | P9WNP5 | MenB enzyme assay, absorbance read-out; some hits fall short of the stated cut | inhibition, %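 (about 12 µg/mL by stock and volumes)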 | hit rate 0.43% among 100,000;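 active means mean of two replicates above 30%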;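 further: 0% = no compound and 100% = wells with inactive enzyme; the first replicate is given; strong numbers were not always called active; inactives centre near -10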
Polio RdRp inh intensity = recorded beside Polio RdRp inh, whose call it bears; % elongation; measured here: total intensity read-out; formula for this scale not given here;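 total fluorescence in place of polarization; lower means less elongation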
Starred values were filed as active, the others as inactive; i = inactive; nt = no result given.

Preview, six compounds:
SMILES	MbtI inh	Polio RdRp inh	Polio RdRp inh intensity	Mtb MenB inh
COC(=O)c1ccc(OC(=O)c2ccccc2)cc1	-9	102	101	-43
CC(C)N(c1nnc(N)s1)C(C)C	nt	107	114	-3
COC(=O)C1(CO)NC(c2ccc(Cl)cc2)C2C(=O)N(C)C(=O)C21 (configuration not stated)	-4	101	100	-33
N#Cc1cc(Cl)c2c(c1)OCCCO2	5	103	107	-3
O=S(=O)(c1ccc(-n2cccn2)cc1)N(Cc1ccccn1)Cc1ccccn1	-6	98	96	-2
S=c1[nH]nc(-c2cc(-c3ccccc3)n[nH]2)n1C1CC2C=CC1C2 (configuration not stated)	18	100	99	-82

All compounds of this part, from the start:
SMILES	MbtI inh	Polio RdRp inh	Polio RdRp inh intensity	Mtb MenB inh
COC(=O)c1ccc(OC(=O)c2ccccc2)cc1	-9	102	101	-43
CC(C)N(c1nnc(N)s1)C(C)C	nt	107	114	-3
COC(=O)C1(CO)NC(c2ccc(Cl)cc2)C2C(=O)N(C)C(=O)C21 (configuration not stated)	-4	101	100	-33
N#Cc1cc(Cl)c2c(c1)OCCCO2	5	103	107	-3
O=S(=O)(c1ccc(-n2cccn2)cc1)N(Cc1ccccn1)Cc1ccccn1	-6	98	96	-2
S=c1[nH]nc(-c2cc(-c3ccccc3)n[nH]2)n1C1CC2C=CC1C2 (configuration not stated)	18	100	99	-82
O=C(CSc1nc(O)cc(=O)[nH]1)c1ccc(O)cc1O	21	101	102	-121
Cc1cc(Cl)nc2ccc(Cl)cc12	-18	101	101	2
CC(C)c1ccc(-n2nnc3ccccc3c2=O)cc1	4	101	101	-5
CC(=O)NC(CSCc1ccccc1)C(=O)O (configuration not stated)	-8	104	106	nt
CCC1CCc2nc3sc(C(=O)NC(C)c4ccccc4)c(N)c3cc2C1 (configuration not stated)	82	102	94	-37
COCCNC(=S)N1CCN(S(C)(=O)=O)CC1	-4	98	101	-20
COC(=O)CSc1nnc2sc3ccccc3n12	-8	100	98	-31
CC(C)Nc1nc(NC(C)C)nc(N(C)C)n1	-7	100	102	1
O=C(c1ccc2nc(N3C(=O)c4ccccc4C3=O)sc2c1)N1CCOCC1	0	98	106	-6
CCN1CCN(C(=O)CN(c2cccc(C(F)(F)F)c2)S(=O)(=O)c2ccc(C)cc2)CC1	-7	103	103	-14
CN(C)C(=O)COC(=O)c1cncc(Br)c1	1	100	105	7
CN1C(C(=O)NC(C)(C)C)=CC(c2cccs2)=NS1(=O)=O	-14	105	102	-19
O=C(CCCOc1ccccc1)Nn1cnnc1	-9	101	102	-25
CC(C)(C)C(=O)N1CCN(S(=O)(=O)c2ccccc2)CC1	-8	103	105	-12
CCOP(=S)(NC)OCC	-10	100	97	-34
CC(C)CNC(=O)c1cccc(S(=O)(=O)N2CCCCC2)c1	-8	105	106	nt
CC(C)(C)NC(=O)Cn1nc(Cl)nc1Cl	-8	99	100	20
CC(C)(C)NC(=O)CSc1nnc([C@H](Cc2ccccc2)NC(=O)OC(C)(C)C)o1	nt	105	98	4
O=c1[nH]c(=S)[nH]c(O)c1C=Nc1cccc(O)c1	0	97	109	-60

Going on with the list:
SMILES	MbtI inh	Polio RdRp inh	Polio RdRp inh intensity	Mtb MenB inh
CCCN1CNC(=S)N(c2ccccc2OC)C1	-7	101	102	-4
NS(=O)(=O)c1ccc(CCNC(=O)c2oc(=O)c3ccccc3c2-c2ccccc2)cc1	3	101	100	-9
Cc1c(C(N)=O)cnn1-c1ccc(Cl)cc1	-6	100	104	-1
Cc1ccc2nc(NC(=O)C3CCCN(S(=O)(=O)c4ccc(Br)s4)C3)sc2c1 (configuration not stated)	-2	102	104	12
Cn1c(N)c(C(=O)COC(=O)C2CCN(C3=NS(=O)(=O)c4ccccc43)CC2)c(=O)n(C)c1=O	-5	98	107	-23
CCC(N)c1ccc(C)cc1 (configuration not stated)	-10	102	108	-21
COc1ccc(NC(=O)Nc2ccccn2)cc1	1	102	103	-20
O=C(NC1(C(F)(F)F)Oc2ccccc2O1)N1CCCC1	-5	107	104	0
C=CCNc1nc(C(=O)OCC(=O)Nc2scc(-c3cccs3)c2C(=O)OCC)cs1	-3	nt	nt	-22
Nc1ccccc1C(=O)N1CCCCCC1	17	97	98	-1
CCC(=O)OCC(=O)Nc1ccc(Br)cc1Br	-11	100	102	nt
CNC(=O)c1cc(Br)cc(S(=O)(=O)N2CCC(C)CC2)c1	-5	103	97	-27
CCc1ccccc1N(C)S(=O)(=O)c1c(C)noc1/C=C/N1CCOCC1	-11	102	105	-14
Cn1cccc1Cc1nnc(SCC(=O)NO)n1-c1ccc(OC(F)(F)F)cc1	-2	102	100	-4
COc1ccc(C2CC(c3ccccc3)=NN2C(=O)Cn2nnc3ccccc32)cc1 (configuration not stated)	10	99	104	-7
Cc1cc(NC(=O)c2ccc(S(=O)(=O)N3CCc4ccccc43)cc2)no1	13	99	100	-32
Cc1ccc(CN2C(=O)C(C)(C)Oc3ccc(C(=O)NC4CC4)cc32)cc1	2	104	103	-3
CCCC(=O)C1CCOC(C)(CC)C1 (configuration not stated)	0	100	103	3
S=c1[nH]nc(-c2c(-c3ccccc3)c(-c3ccccc3)nn3nnnc23)o1	64	92	86	-27
COc1cc(CN2CCN(C(=O)c3cccc4ccccc34)CC2)cc(OC)c1OC	-17	103	102	-48
CC(C)CCn1c(=O)c2sccc2n2c(CCCC(=O)N3CCCC3)nnc12	1	103	104	3
CC(C)COc1ccc(C(=O)N(C)Cc2ccccc2)cc1	-8	102	104	-5
Cc1cc(C(=O)OCC(=O)N2CCc3ccccc32)c(C)o1	-5	101	105	nt
CCCNC(=O)c1cccc(C)c1	-15	102	102	-20
O=C(Nc1scc(-c2cccs2)c1C(=O)O)c1cccs1	nt	100	106	-21

(list continues)
SMILES	MbtI inh	Polio RdRp inh	Polio RdRp inh intensity	Mtb MenB inh
O=C(Oc1c(Cl)cc(Cl)c2cccnc12)N1CCCCCC1	3	104	100	-51
Cn1c(SCC(=O)N2CCc3ccccc32)nc2c(c1=O)SCC2	26	99	99	0
Cc1noc(C)c1-n1sc(=O)n(CC2CC2)c1=O	99*	93	91	15
N#CC(C#N)=CNCC(c1ccc(F)cc1)N1CCOCC1 (configuration not stated)	3	101	91	-35
Cc1ccc(C(=O)Sc2nnc3sc4ccccc4n23)cc1	4	102	94	-14
Nc1cc2c(cc1Cl)OCCCO2	-3	102	91	-14
Cc1oc2cc(OC(C)C)ccc2c(=O)c1-c1ccc2c(c1)OCCO2	3	106	104	-20
O=S(=O)(Nc1ccncc1)c1ccccc1	3	104	104	-13
CCS(=O)(=O)Nc1ccc(C2=NN(C(=S)Nc3ccccc3)C(c3ccco3)C2)cc1 (configuration not stated)	-29	105	101	-52
Cc1ccc(Sc2ncccc2C(=O)Nc2ccnn2C2CCN(C)CC2)cc1	4	105	109	-17
COc1ccc2nc(C)c(C(=O)O)cc2c1	90	103	103	-19
O=C(NC1CCCC1)C1CCC(CNS(=O)(=O)c2ccccc2)CC1 (configuration not stated)	4	101	98	4
COc1ccc(CCN(Cc2cc3cc4c(cc3[nH]c2=O)OCO4)C(=O)c2ccncc2)cc1OC	-11	102	105	-43
CSc1ncc(C(=O)NC(C)c2ccccn2)n1-c1ccc(F)cc1 (configuration not stated)	10	101	95	5
CC(C)c1ccccc1NC(=O)COC(=O)c1ccc(N(C)C)cc1	30	102	96	nt
Cc1nc(-c2cc(C#N)c(SCCNS(=O)(=O)c3ccc(C(C)(C)C)cc3)nc2C)cs1	-2	115	151	-22
CCc1ccccc1Nc1cc(C(=O)NCC2COc3ccccc3O2)c2ccccc2n1 (configuration not stated)	36	102	104	-30
COC(=O)c1cc(CSc2nnc(NC3CCCCC3)s2)oc1C	10	101	103	-32
O=C(NC(c1ccccc1)c1ccccc1)c1ccc2c(c1)OCCO2	nt	107	115	-32
CSC(=S)OC12CC3CC(CC(C)(C3)C1)C2	3	99	91	nt
Cc1ccc(CNC(=O)C2CCCN(S(=O)(=O)N3CC(C)CC(C)C3)C2)cc1 (configuration not stated)	-4	100	103	-16
CC(c1ccc(C(=O)O)o1)N1CCOCC1 (configuration not stated)	nt	99	100	7
Cc1ccc(C(=O)CSc2nnc(-c3cccs3)n2C2CC2)s1	2	104	105	9
O=C(O)c1ccccc1C(=O)NCCN1CCNC1=O	1	104	106	-14
CCOC(=O)/C(C#N)=N/Nc1ccsc1C(=O)OC	1	101	101	-17

Following part
SMILES	MbtI inh	Polio RdRp inh	Polio RdRp inh intensity	Mtb MenB inh
Cc1nccc2[nH]c(=O)c(C(=O)NC3CCC(C)CC3)cc12 (configuration not stated)	9	101	103	-27
COc1cc2ccccc2cc1C(=O)NCCC12CC3CC(CC(C3)C1)C2	nt	101	105	-22
Cc1ccc(C(=O)CCC(=O)NC2=NCCS2)cc1	4	102	101	7
NCCNC(=O)c1ccco1	16	104	102	-7
CC(Sc1nc(C2CC2)n(-c2ccccc2)n1)C(=O)Nc1ccnn1C(C)C (configuration not stated)	-1	103	106	11
Cc1cc(C)nc(NC(N)=NCCc2c[nH]c3ccccc23)n1	-102	101	104	-1
O=[n+]1c2c(n([O-])c3ccccc31)CCC2	14	100	105	5
CC(NC(=O)c1ccc2nc[nH]c2c1)c1ccccc1 (configuration not stated)	nt	107	114	-7
Cc1c(N=C2NC(=O)C(CC(=O)Nc3ccccc3)S2)c(=O)n(-c2ccccc2)n1C (configuration not stated)	3	99	107	13
CCN1C(=O)/C(=C2/C(=O)N(Cc3ccc(Cl)cc3)c3ccccc32)SC1=S	-4	103	107	nt
O=C(O)COCC(=O)Nc1ccc(-n2ccc(C(F)(F)F)n2)cc1	-6	105	101	-7
Cn1c(=O)c(-c2noc(-c3ccccc3)n2)cn(-c2ccccc2)c1=O	-15	105	107	8
O=C(O)CCSCc1ccc(Cl)cc1	-2	101	103	-14
Cc1nnc2c3ccccc3nc(Nc3ccc4c(c3)OCO4)n12	i	103	106	-20
O=C(COC(=O)c1ccccc1Cl)c1cc2ccccc2o1	-3	102	99	nt
c1ccc(CN2CN=C(Nc3nc4ccccc4s3)NC2)cc1	-1	104	107	-14
CCOC(=O)c1ccc(S(=O)(=O)NC2CCCCCCC2)n1C	-8	102	107	-8
OCCCCn1c(-c2ccccc2)cc2ccccc21	nt	103	103	6
c1nc(N2CCOCC2)nc2c1CNCC2	10	99	103	9
O=C1NC(c2ccc(O)cc2)=NC2Oc3ccc4ccccc4c3C=C12 (configuration not stated)	39	103	105	2
CCCn1c(N)nc2c1c(=O)n(C)c(=O)n2C	34	99	97	3
Cc1ccc(C(=O)OCC2OC3OC(C)(C)OC3C2O)cc1 (configuration not stated)	nt	107	99	-6
CC(C)(C)n1ncc2c(=O)n(NC(=O)Cc3ccccc3)cnc21	-6	97	102	-28
Cc1c(C#N)c(NC(=O)CN2CCCC2c2cccs2)n(C2CCCCC2)c1C (configuration not stated)	-6	102	111	-20
O=C(CCn1cccc1)NCCc1ccccc1	-12	101	103	-14

Profiles, looked up by structure:
COc1cc2ccccc2cc1C(=O)NCCC12CC3CC(CC(C3)C1)C2 as listed: MbtI inh = nt; Polio RdRp inh = 101; Polio RdRp inh intensity = 105; Mtb MenB inh = -22
CC(NC(=O)c1ccc2nc[nH]c2c1)c1ccccc1 (configuration not stated) as listed: MbtI inh = nt; Polio RdRp inh = 107; Polio RdRp inh intensity = 114; Mtb MenB inh = -7
CCCn1c(N)nc2c1c(=O)n(C)c(=O)n2C as listed: MbtI inh = 34; Polio RdRp inh = 99; Polio RdRp inh intensity = 97; Mtb MenB inh = 3

Ordered by number of heavy atoms (largest number first): part of the list above.
SMILES	MbtI inh	Polio RdRp inh	Polio RdRp inh intensity	Mtb MenB inh
c1ccc(CN2CN=C(Nc3nc4ccccc4s3)NC2)cc1	-1	104	107	-14
CC(NC(=O)c1ccc2nc[nH]c2c1)c1ccccc1 (configuration not stated)	nt	107	114	-7
Cc1ccc(C(=O)CCC(=O)NC2=NCCS2)cc1	4	102	101	7

(cont.)
SMILES	MbtI inh	Polio RdRp inh	Polio RdRp inh intensity	Mtb MenB inh
Fc1ccc(CNC2=NCCS2)cc1	1	104	94	-15
COC(=O)c1c(C)nn(-c2ccccc2)c1NC(=O)C(C)Oc1ccc(Cl)cc1 (configuration not stated)	-3	101	97	-28
Cc1ccc(CNC(=O)c2cc3c(=O)n(C)c4ccccc4c3n2C)cc1	0	103	106	-38
COC(=O)c1sccc1-c1ccc(CN2CCC(c3ccccc3OC)CC2)o1	-18	104	110	-2
COc1ccc(C2CCCCCN2C(=O)Cc2nn(C)c(=O)c3ccccc23)cc1 (configuration not stated)	19	100	98	-1
CC[n+]1cccc(-c2nc3ccccc3s2)c1	32	99	99	8
Cc1cc(=O)[nH]c(SCC(=O)C2CC2)n1	4	99	104	6
CCc1ccc(C(=O)NCc2ccc3c(c2)OCO3)cc1	-14	103	110	1
Cc1cc(CSC(=N)N)cs1	-6	102	95	-21
S=c1nc(C2CCCCC2)n(-c2ccccc2)[nH]1	34	99	103	-66
O=C(CSc1nnc2c(n1)CCCC2)c1ccc(N2CCCC2=O)cc1	15	99	102	-21
Fc1ccc(N=Cc2ccccc2F)cc1	2	99	94	-18
Cc1cccc(NC(=O)CN2C(=O)CSC2=O)c1	-6	102	102	12
CC(C)Nc1nc(C#N)nc(NC(C)C)n1	7	91	85	25
O=C(CC1C(=O)N(c2ccccc2)C(=O)N1C1CCCCC1)Nc1ccccc1 (configuration not stated)	-3	102	109	-15
NC(=O)C(Cc1ccccc1)N1C(=O)C2C3C=CC(C3)C2C1=O (configuration not stated)	-3	106	102	-2
